Ecoli tolC: growth inhibitors of E. coli tolC mutant, primary screen, strain BW25113 ΔtolC::kan, 384-well; OD615; growth inhibition, % at 10 µM (by protocol); actives 2.2% (n = 65,000); AID 573, 2007;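 active = growth inhibition at or above a cutoff equal to the mean over every tested compound plus 3 SD, cut at about 60% in these data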;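 note: growth measured after 20 h incubation at 37 °C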
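test system = E. coli BW25113 ΔtolC::kan bacteria | medium = LB with kanamycin 50 µg/mL | signal = OD at 615 nm | schedule = 37 °C, 20 h exposure | evaluation = % inhibition of E. coli growth | compound dosing = one dose of 10 µM final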
SF-1 act: activators of human SF-1, primary screen, cell-based, CHO-K1, Gal4-SF-1 LBD, luciferase luminescence. CHO-K1 Gal4-SF-1 LBD luciferase reporter; % increase over DMSO SF-1-specific signal. AID 522, 2006. actives 1.9% (n = 65,000). Steroidogenic factor 1 (Homo sapiens), Q13285. activation, % at 10 µM;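 active = activation above the mean activation of all tested compounds plus 3 SD, cut at about 50% in these data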
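Material: CHO-K1 cells with Gal4–hSF-1 LBD chimera plus Gal4-driven luciferase / Input: 4,000 CHO-K1 cells per well / Incubation: compound exposure 20 h at 37 °C / Signal: luminescence read 15 min after SteadyLite luciferase reagent, after room-temperature equilibration / Read-out: percent activation versus DMSO / Benchmarks: DMSO negative control and −SF1 background wells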
TNAP act DEA: human TNAP enzyme activators, primary screen, biochemical, luminescent, intermediate phosphate acceptor level; purified TNAP, CDP-star luminescence, 100 mM DEA, 30 min; stronger effect = higher value; scale: 0 levamisole-inhibited, 1 vehicle-only enzyme; activation factor at 20 µM; 64,000 tested, under 10 active;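 active = activation factor of at least 2 at 20 µM, relative to controls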
Ec RNAP inh: E. coli RNAP inhibitors, biochemical; E. coli RNA polymerase, fluorescence transcription assay; inhibition, %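 (tested at 10 µM)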; actives 0.2% (n = 62,000); in the data active = inhibition above about 20%;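 note: 0% = enzyme without compound and 100% = no enzyme blank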
M1 antagonist: antagonists of rat M1 muscarinic receptor; CHO-M1 cells, Fluo-4 calcium, ACh EC80 antagonist mode; stronger effect = lower value; AID 628, 2007; actives 3.4% (n = 64,000); B-score at 10 µM;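 active = calcium fluorescence response, raw or row-and-column corrected B-score, differing from the plate sample mean either way at a set confidence level, mostly lower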
Target sequence (P08482 whole entry, looked up): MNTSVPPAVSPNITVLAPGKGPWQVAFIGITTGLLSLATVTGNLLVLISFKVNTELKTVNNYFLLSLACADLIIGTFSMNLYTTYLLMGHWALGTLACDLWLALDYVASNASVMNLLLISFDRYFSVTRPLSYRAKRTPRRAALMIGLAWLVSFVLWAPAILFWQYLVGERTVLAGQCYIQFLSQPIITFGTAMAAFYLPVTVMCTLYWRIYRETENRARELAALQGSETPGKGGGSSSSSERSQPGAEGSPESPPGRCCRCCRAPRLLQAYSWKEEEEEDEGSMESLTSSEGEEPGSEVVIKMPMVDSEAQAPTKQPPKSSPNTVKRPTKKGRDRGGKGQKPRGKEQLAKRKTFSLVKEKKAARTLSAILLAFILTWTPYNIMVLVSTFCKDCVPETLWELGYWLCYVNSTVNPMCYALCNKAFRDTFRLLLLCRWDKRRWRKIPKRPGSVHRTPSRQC
An asterisk follows results filed as active. A portion of the library; the hit share may differ from the screen's.

[1] CCCCn1c(=O)c(C(=O)Nc2ccccc2S(N)(=O)=O)c(O)c2ccccc21
[2] Clc1ccc(COC(Cn2ccnc2)c2ccc(Cl)cc2Cl)c(Cl)c1 (configuration not stated)
[3] O=C(COc1ccccc1)N1CCN(CC2CC3C=CC2C3)CC1 (configuration not stated)
[4] CN(C)[C@@H]1C(=O)C(C(N)=O)=C(O)[C@@]2(O)C(=O)C3=C(O)c4c(O)ccc(Cl)c4[C@@](C)(O)C3C[C@@H]12 (some centres not stated)
[5] CCCCP(=O)(O)CCC(=O)O
[6] Clc1ccc(CSC(Cn2ccnc2)c2ccc(Cl)cc2Cl)cc1 (configuration not stated)
[7] CC12CCC(=O)C=C1CCC1C2CCC2(C)C(O)CCC12 (configuration not stated)
[8] OC(COCc1ccc(Cl)cc1)CN1CC=C(c2ccccc2)CC1 (configuration not stated)
assay / compound	1	2	3	4	5	6	7	8
M1 antagonist	-0.36	0.3	-1.3	-0.057	0.76	-0.16	-1	-4*
Ecoli tolC	98*	100*	4	11	-8	10	25	-2
Ec RNAP inh	5	10	-10	-3	10	12	-11	4
TNAP act DEA	0.9	1.9	1	0.9	1	1.3	1	0.9
SF-1 act	30	-19	-2	-4	0	-9	-2	-8

Looked up one by one from the list above, 2 records:
[3] O=C(COc1ccccc1)N1CCN(CC2CC3C=CC2C3)CC1 (configuration not stated)
[5] CCCCP(=O)(O)CCC(=O)O
assay / compound	3	5
M1 antagonist	-1.3	0.76
Ecoli tolC	4	-8
Ec RNAP inh	-10	10
TNAP act DEA	1	1
SF-1 act	-2	0

3 compounds already listed, ordered by SMILES length, falling.
[1] CCCCn1c(=O)c(C(=O)Nc2ccccc2S(N)(=O)=O)c(O)c2ccccc21
[8] OC(COCc1ccc(Cl)cc1)CN1CC=C(c2ccccc2)CC1 (configuration not stated)
[5] CCCCP(=O)(O)CCC(=O)O
assay / compound	1	8	5
M1 antagonist	-0.36	-4*	0.76
Ecoli tolC	98*	-2	-8
Ec RNAP inh	5	4	10
TNAP act DEA	0.9	0.9	1
SF-1 act	30	-8	0
